# AID504770 = growth inhibitors of E. coli YBA685 in a screen for V. cholerae RctB (chromosome II replication) inhibitors; E. coli YBA685 rctB-dependent plasmid, OD600 growth, 3 h; hits give low values; AID 504770; z-score (no concentration beside the values); hit rate 0.27% among 130,000;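 active means z-score under -2 on both plates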;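 further: wells of about 30 µL received 100 nL stock; score is relative to mean and SD of the test wells; the first replicate is given; strong numbers were not always called active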
# Ba CapD inh = inhibitors of Bacillus anthracis CapD enzyme | purified CapD enzyme, fluorescence intensity read-out; hits give low values; some hits fall short of the stated cut | z-score (concentration not given with the values) | hit rate 0.23% among 140,000 | AID 492967;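 active means z-score under -4 in either of two replicates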;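 further: stock transfer was 100 nL into about 40 µL; score is relative to mean and spread of the plate; one replicate is shown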
# * = called active by the depositor; · = no result given.
SMILES,AID504770,Ba CapD inh
O=c1oc2cc(Oc3ncnc4c3oc3ccccc34)ccc2c2c1CCC2,0.5,·
O=c1c2cn[nH]c2[nH]c(=S)n1-c1ccc(Cl)c(Cl)c1,·,-0.11
CCCSc1nsc(NC(=O)CCc2nc3ccccc3c(=O)[nH]2)n1,-0.6,·
CSc1nc(N)nc2sc3c(O)cc(=O)[nH]c3c12,-0.25,-0.34
O=S(=O)(Nc1cccc(C2OCCCO2)c1)c1ccccc1,-0.15,0.4
CCC(CO)NC(=O)c1cc(OC)c(OC)c(OC)c1 (stereo not given),-0.3,0.07
CC(C)OC(=O)C1C2C=CC3(CN(CC4CCCO4)C(=O)C13)O2 (stereo not given),-2,0.005
CC(C)N(Cc1ccccc1)S(=O)(=O)c1ccc2c(c1)CCO2,-0.75,0.03
NC(=O)N1c2ccccc2CC(=O)c2ccccc21,-0.05,·
O=C(/C=C/c1ccccc1)OCCN1C(=O)c2cccc3c(N4CCOCC4)ccc(c23)C1=O,·,0.61
COc1ccc(C(=O)N(CC(=O)Nc2nn(-c3ccccc3)nc2C(N)=O)Cc2ccccc2)cc1,-0.1,17
CC(O)/C=C\c1cc[n+](C)cc1 (stereo not given),0.55,0.65
Cc1csc2nc(CN3CCOCC3)[nH]c(=O)c12,-0.45,0.26
Clc1ccc(COc2ccccc2-c2ccnc(-c3ccccn3)n2)cc1,·,-0.16
Cc1cc(OCc2noc(CSc3ccc(C(F)(F)F)cn3)n2)cc(C)c1Cl,1.2,8.8
COc1ccc(C(=O)CNc2ccc(C#N)cc2)cc1,-1.5,-0.82
O=C(Cn1nnc2ccccc21)NC1Cc2ccccc2C1,·,0.12
COc1ccc(C(=O)NNC(=O)OCCCCCc2ccccc2)cc1,·,-0.58
Cc1ccc(S(=O)(=O)NC(=O)NCCc2cccs2)cc1,·,0.45
CC(/C(N)=N/O)N1CCCC1=O (stereo not given),0.9,-0.56
CCN(CCOC(=O)N1CCN(c2ccccn2)CC1)c1ccc(N=Nc2ccc([N+](=O)[O-])cc2)cc1,·,-0.07
COc1ccc(CN(C)CC(=O)c2c[nH]c3ccccc23)c(OC)c1,-0.75,·
Cn1c(Cc2ccccc2C(=O)O)nc(=O)c2ccccc21,-1.1,1.6
O=S(=O)(NCCc1ccccc1)c1cccc2cccnc12,-1.6,-0.55
CC(=O)NCCc1nc2cc(NC(C)=O)ccc2n1C,-0.85,-0.34

# Entries listed so far that contain an aryl methoxy group:
SMILES,AID504770,Ba CapD inh
CCC(CO)NC(=O)c1cc(OC)c(OC)c(OC)c1 (stereo not given),-0.3,0.07
COc1ccc(C(=O)N(CC(=O)Nc2nn(-c3ccccc3)nc2C(N)=O)Cc2ccccc2)cc1,-0.1,17
COc1ccc(C(=O)CNc2ccc(C#N)cc2)cc1,-1.5,-0.82
COc1ccc(C(=O)NNC(=O)OCCCCCc2ccccc2)cc1,·,-0.58
COc1ccc(CN(C)CC(=O)c2c[nH]c3ccccc23)c(OC)c1,-0.75,·

# More records follow.
SMILES,AID504770,Ba CapD inh
O=C(O)CC1(CC(=O)N2CCN(c3ncc(C(F)(F)F)cc3Cl)CC2)CCCC1,·,-0.78
O=C(CSc1nnc(CN2CCCC2)n1-c1ccccc1)c1ccc2c(c1)OCO2,-0.4,·
CC(=O)Nc1ccc(NC(=O)CSCC(=O)O)cc1,-0.6,0.99
CCC(NC(=O)c1cc(OC)c(OC)c(OC)c1)C12CC3CC(CC(C3)C1)C2 (stereo not given),-0.05,-0.13
COc1ccc(C(=O)COc2ccc(C)cc2NC(C)=O)cc1,·,0.32
Cc1ccc2c(c1)-c1c(ssc1=S)C(C)(C)N2C(=O)CSc1n[nH]c(-c2ccccc2)n1,·,-0.24
c1ccc(CN2CCN(Cc3ccccc3)C2c2ccc3c(c2)OCO3)cc1,-1.7,0.95
O=C(/C=C1\Sc2ccccc2NC1=O)NCCCN1CCC(Cc2ccccc2)CC1,-0.35,-0.015
CCN1C(=O)c2ccccc2S(=O)(=O)c2ccc(C(=O)N3CCCCC3)cc21,-0.05,0.025
CNC(=S)NC1CC2CCC1C2 (stereo not given),-0.25,-0.51
CCCCSc1nnc2c(n1)OC(c1ccccn1)Nc1ccccc1-2 (stereo not given),·,0.08
O=C(Nc1cccc(C(F)(F)F)c1)c1cccs1,-0.1,·
COc1ccc(/C=C2\C=C(c3ccccc3)N(c3ccc(Cl)cc3)C2=O)cc1Br,·,-0.3
Cc1cc(=O)oc2c1ccc1oc(Nc3ccccc3)cc12,·,15
O=C(Cc1cn2ccsc2n1)N/N=C1\C(=O)c2cccc3cccc1c23,0.3,·
O=C1c2ccccc2C(=O)c2c1cccc2-c1ccc(/C=c2\sc3nc4ccccc4n3c2=O)o1,·,-0.05
CNC(=S)NCCN1CCCCC1,-0.9,0.04
N#CC1(NC(=O)CSc2nnc(COc3ccccc3F)n2-c2ccccc2)CCCCC1,-0.15,·
CCCC(=O)ON1C(=O)c2cccc3cccc(c23)C1=O,-0.55,96
CCCCC(Sc1ccc2nnc(-c3ccc(OC)c(OC)c3)n2n1)C(=O)O (stereo not given),-0.6,0.59
C=CCSc1nnc2c(n1)OC(C1CC=C(C)CC1)Nc1ccccc1-2 (stereo not given),-0.05,0.49
Cc1cc(C)n2nc(SC/C(O)=C(\C#N)c3nc4ccccc4[nH]3)nc2n1,0.15,·
Cc1cc(C(=O)O)c(=O)[nH]c1C,1,8.8
CC(C)Cc1nc(SCC(=O)Nc2ccccn2)n[nH]1,-1.1,-0.7
CC1CCN(C(=O)c2cc3sccc3n2C)CC1,-0.85,-0.32

# Fetched one by one from the entries so far, four records:
SMILES,AID504770,Ba CapD inh
Cc1cc(=O)oc2c1ccc1oc(Nc3ccccc3)cc12,·,15
Cc1ccc(S(=O)(=O)NC(=O)NCCc2cccs2)cc1,·,0.45
CCC(NC(=O)c1cc(OC)c(OC)c(OC)c1)C12CC3CC(CC(C3)C1)C2 (stereo not given),-0.05,-0.13
CC(O)/C=C\c1cc[n+](C)cc1 (stereo not given),0.55,0.65

# Next results follow.
SMILES,AID504770,Ba CapD inh
C#CCNCc1cc(=O)n2ccsc2n1,-0.1,·
O=C(Cc1ccc(F)c(F)c1)N1CCN(C(=O)OCc2ccc(-c3ccccc3)cc2)CC1,·,0.2
CCOC(=O)c1cc(C(C)(C)C)n(CCSC)c1C,-1.1,-0.3
Cc1c(Br)cc2nc(-c3ccccc3)c(-c3ccccc3)nc2c1C,·,-0.65
Cc1ccc(N2C(=O)/C(=C/c3ccc(Cl)cc3)C=C2c2ccccc2)c(Br)c1,·,-0.01
COc1cc(OC)cc(C(=O)NCC(=O)OC2CCOC2=O)c1 (stereo not given),-0.7,·
O/N=C1\CC(O)(C(F)(F)F)Oc2ccc(Cl)cc21 (stereo not given),-0.4,1.5
CNC(=O)NCC12CC3CC(CC(C3)C1)C2,1,·
CCOC(=O)C1=C(CSc2ccc(C)cc2C)NC(=O)NC1C (stereo not given),-0.1,·
Cc1ccc(NS(C)(=O)=O)cc1N=Cc1ccccc1O,·,0.29
CCCN(C1CCN(C)CC1)S(=O)(=O)c1cccc(C(F)(F)F)c1,·,-0.4
CC(NC(=O)c1cccs1)c1ccccc1 (stereo not given),0.2,0.47
Cc1ccc(CS(=O)(=O)CCC(=O)NCc2ccc3c(c2)OCO3)cc1,-0.3,·
CC(C)C1=NN(C(=O)C(O)c2ccccc2)C(O)(C(F)(F)F)C1 (stereo not given),-0.35,-0.46
Oc1ccc(Cl)cc1/C=N/c1nccs1,-1.2,-0.24
O=C(CSc1nnc2sc3ccccc3n12)N1CCc2ccccc21,0.2,-0.5
CCOC(=O)c1c(-c2ccccc2)oc2c1cc(OC(=O)c1ccc(S(=O)(=O)N3CCOCC3)cc1)c1ccccc12,·,-0.61
C=CCN1C(=S)NC2(O)c3ccccc3C(=O)C12O (stereo not given),·,-0.1
CC(=O)N(C(C)=O)c1ccc2c3c(cccc13)CC2,·,-2.3
C=CCn1c(SCC(=O)N2CCc3ccccc3C2)nnc1-c1ccccc1OC,-0.3,-0.73
Cc1onc(-c2ccccc2)c1C(=O)NC1C(=O)N2[C@@H]1SC(C)(C)[C@@H]2C(=O)O (stereo not given in full),-0.15,0.015
CCN(C(=O)NS(=O)(=O)c1ccc(C)cc1)C1CCCCC1,-0.65,·
CCN1CCN(CC(=O)N/N=C/c2ccccc2)CC1,-0.65,-0.045
CCC(C(=O)C(C)C(O)C(C)CCc1ccc(C)c(O)c1C(=O)O)[C@H]1O[C@](CC)([C@H]2CC[C@](O)(CC)[C@H](C)O2)C[C@@H]1C (stereo not given in full),·,0.01
Cc1cccc(N2CCN(C(=O)CCc3nnc4n(C)c(=O)c5ccccc5n34)CC2)c1C,1.4,6.2
# Continuation:
SMILES,AID504770,Ba CapD inh
CCOc1ccc(C(C)N)cc1 (stereo not given),-1.1,·
CCOC(=O)C1=CNc2ccccc2N=C1N,-0.75,0.005
Cc1nc(Nc2nc(-c3ccccc3)cc(=O)[nH]2)nc2ccccc12,·,0.065
Cc1nnc2c(Nc3ccc(Cl)cc3)nc3nonc3n12,·,-0.22
Cc1cccc(N(C)S(=O)(=O)c2ccc3[nH]c4c(c3c2)CCCC4)c1,-0.35,-0.28
CSc1cccc(NC(=O)COC(=O)c2ccccc2)c1,0.3,·
O=C1Nc2ccccc2/C1=N\N=C\c1ccccc1,-0.55,·
CC(=O)Nc1ccc(OCc2cnc(Cl)s2)cc1,-0.1,-0.52
O=c1ccnc(SCCc2ccccc2)[nH]1,-1.1,-0.17
CN1/C(=C\C(=O)CSCc2ccco2)C(C)(C)c2ccccc21,0.8,·
COc1ccc(NC(=O)CS(=O)(=O)c2c[nH]c3ccccc23)cc1,1.8,-0.4
O=C(O)c1csc(-c2cccnc2)n1,·,0.62
O=C(Cc1c(F)cccc1Cl)Nc1cc(C(=O)NCc2cccs2)ccc1N1CC2CC(C1)c1cccc(=O)n1C2 (stereo not given),·,0.05
CC(C)(C)C(=O)COC(=O)c1ccc(NS(=O)(=O)c2cccs2)cc1O,-0.8,·
CCN(CCO)Cc1cn[nH]c1-c1ccc(C)c(C)c1,-0.2,-0.05
CC(C)(C)c1ccccc1OCC(O)CN1CCN(c2ccccc2F)CC1 (stereo not given),0.15,0
Nc1ncnc2c1ncn2[C@@H]1O[C@H](CO)[C@@H](O)[C@@H]1O,-0.5,-0.46
COc1ccc(C(=O)O)cc1S(=O)(=O)NCCc1ccccc1,-0.85,-0.01
O=c1ccc(-c2n[nH]c(=S)o2)cn1Cc1cccc(C(F)(F)F)c1,·,-1.4
CCN1C(=O)c2cccc3c(S(=O)(=O)N4CCc5ccccc5C4)ccc1c23,-0.3,-0.5
Cc1ccc(CNC(=O)Cn2c3ccc(C)cc3c3nc4n(c(=O)c32)CCS4)cc1,1.4,·
CCC(C(=O)Nc1ccccc1OC)n1c(C(=O)OC)cc2oc(C)cc21 (stereo not given),-1.5,-0.2
N#Cc1ccc(OCC(=O)O)cc1,-0.1,0.5
CN(C)c1ccc(C=Nc2ccc(C(N)=O)cc2)cc1,0.25,-1.6
COC(=O)CN1C(=O)/C(=C\c2ccc(O)cc2)SC1=S,0.1,-0.29

# Compound profiles, as listed above. Values in the order: AID504770	Ba CapD inh
# O=c1ccnc(SCCc2ccccc2)[nH]1 across the screens: -1.1	-0.17
# CC(=O)Nc1ccc(OCc2cnc(Cl)s2)cc1 across the screens: -0.1	-0.52
# O=C(Cc1c(F)cccc1Cl)Nc1cc(C(=O)NCc2cccs2)ccc1N1CC2CC(C1)c1cccc(=O)n1C2 (stereo not given) across the screens: ·	0.05

# No new results follow: entries from further up.
SMILES,AID504770,Ba CapD inh
CCOc1ccc(C(C)N)cc1 (stereo not given),-1.1,·
CCOC(=O)C1=CNc2ccccc2N=C1N,-0.75,0.005

# Next part
SMILES,AID504770,Ba CapD inh
COC(=O)C1=C(C)NC(=S)NC1c1cn(-c2ccccc2)nc1-c1cccs1 (stereo not given),2,-0.21
O=C(CCc1ccccc1)OCc1nc2ccccc2s1,0.1,0.73
Nc1ccc(C(=O)OC(C(=O)N2CCOCC2)c2ccccc2)cc1 (stereo not given),-0.25,·
CCOC(=O)C1=C(C)NC2=C(C(=O)OC2)C1c1ccccc1 (stereo not given),-0.55,·
CC1CCCC(NC(=O)c2ccc(NC(=O)c3ccc(=O)[nH]c3)cc2)C1C (stereo not given),-0.6,-0.57
C=CCNC(=O)c1ccc(-n2cc(-c3ccncn3)cn2)cc1,·,14
CC1CCC(C(C)C)C(=O)/C1=C/c1ccc(N(C)C)cc1 (stereo not given),-1.2,2.9
FC(F)(F)c1ccccc1-c1nnc(-c2sccc2Cl)o1,-0.35,12
CC(C)OC(=O)Nc1ccc2c(c1)Nc1ccccc1CC2,·,14
N#Cc1ccc(Cl)cc1NC(=O)COC(=O)C1CC1,-0.4,-0.035
C=CCN(C(=O)CSc1nc2ccccc2o1)c1nc2c(s1)CCCC2,-0.2,·
CCOc1ccc2c(c1)C(C)CC(C)(C)N2C(=O)Nc1cccc(Cl)c1 (stereo not given),·,1.6
O=C1/C(=C\c2ccc(-c3cccc(C(F)(F)F)c3)o2)SC(=S)N1C1CCS(=O)(=O)C1 (stereo not given),·,-0.52
O=c1c(-c2nnnn2-c2ccccc2)c[nH]c2ccccc12,-0.7,0.26
Cc1cnc(NC(=O)CCN2C(=O)c3ccccc3C2=O)s1,0.4,0.4
CC(C)NC(=O)CSc1nnc(-c2ccc(C(C)(C)C)cc2)n1-c1ccc2c(c1)OCO2,-0.95,-0.43
CCOC(=O)CNc1c(-c2ccc(OC)cc2)nc2cccc(C)n12,-0.5,·
CC(C(=O)NCc1ccco1)N(C(=O)c1ccc(Cl)nc1)C1CCCCC1 (stereo not given),1.5,·
Cc1ccc2c(c1)C1CN(C)CCC1N2C(=O)COc1ccccc1 (stereo not given),1.9,-0.62
CCc1cc(C(=O)OC)c(NC(=O)CC2SC(=NC)N(C)C2=O)s1 (stereo not given),1.3,·
Cc1ccsc1/C=N/NC(=O)c1nnn(-c2nonc2N)c1C,-0.5,0.2
O=C(COC(=O)C1=COCCO1)NCc1cccs1,1.1,·

# Screens from PubChem BioAssay.
